Screens as filed in PubChem BioAssay.
Mtb MbtI inh = blocks the Mycobacterium tuberculosis siderophore enzyme MbtI; P9WFX0; purified MbtI enzyme, fluorescence intensity read-out; inhibition, %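 (about 17 µg/mL by stock and volumes)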; 100,000 tested, 0.89% active;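 active means above 50% in both replicates, above 80% if mildly self-fluorescent; inactive means the rest, strongly fluorescent compounds included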;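 further: 0% = mean of negative and 100% = mean of positive controls; one replicate is shown; some compounds called inactive have numbers as strong as hits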
Mtb MenB inh = blocks the Mycobacterium tuberculosis MenB enzyme | 100,000 tested, 0.43% active | P9WNP5 | inhibition, %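 (about 12 µg/mL by stock and volumes)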 | MenB enzyme assay, absorbance read-out; some hits fall short of the stated cut;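 active means mean of two replicates above 30%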;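 further: 0% = no compound and 100% = wells with inactive enzyme; the first replicate is given; strong numbers were not always called active; inactives centre near -10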
Target sequence (P9WNP5 whole entry, looked up): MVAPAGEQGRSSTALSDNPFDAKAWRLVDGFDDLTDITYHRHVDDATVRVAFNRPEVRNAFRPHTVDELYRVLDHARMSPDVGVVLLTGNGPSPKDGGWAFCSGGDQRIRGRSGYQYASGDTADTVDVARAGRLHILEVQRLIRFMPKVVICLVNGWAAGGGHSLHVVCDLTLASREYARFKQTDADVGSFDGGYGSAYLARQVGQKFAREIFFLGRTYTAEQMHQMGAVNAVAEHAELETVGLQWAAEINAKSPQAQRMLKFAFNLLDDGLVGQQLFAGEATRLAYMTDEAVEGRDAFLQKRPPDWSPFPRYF
Polio RdRp inh = inhibitors of poliovirus RNA polymerase binding and polymerization; P03300; poliovirus polymerase elongation, fluorescence polarization; stronger effect = lower value; % elongation, % (compound at 16.7 µg/mL); 150,000 tested, 0.66% active; in the data active means % elongation below about 90%; further: some results filed as inactive read as strong as hits
Target sequence (P03300 1749-2209 limits assumed): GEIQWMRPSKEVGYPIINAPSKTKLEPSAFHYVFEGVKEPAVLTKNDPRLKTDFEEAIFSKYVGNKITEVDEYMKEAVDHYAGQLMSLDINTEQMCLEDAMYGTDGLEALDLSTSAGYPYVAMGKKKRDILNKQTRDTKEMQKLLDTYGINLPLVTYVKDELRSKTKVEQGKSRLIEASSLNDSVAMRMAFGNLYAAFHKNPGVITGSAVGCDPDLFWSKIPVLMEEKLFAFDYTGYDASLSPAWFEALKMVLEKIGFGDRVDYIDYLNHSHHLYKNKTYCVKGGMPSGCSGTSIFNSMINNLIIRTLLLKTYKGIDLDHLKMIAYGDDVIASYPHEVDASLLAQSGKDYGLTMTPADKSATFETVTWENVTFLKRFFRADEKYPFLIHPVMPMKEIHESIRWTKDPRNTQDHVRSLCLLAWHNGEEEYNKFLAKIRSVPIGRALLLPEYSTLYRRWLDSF
Polio RdRp inh intensity = also measured in Polio RdRp inh; calls as there; % elongation; measured here: total intensity read-out; formula for this scale not given here;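 total fluorescence in place of polarization; lower means less elongation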
* hit, by the source's call.

`O=C(O)C1CCN(c2c(-c3ccccc3)c3cc(Cl)ccc3[nH]c2=O)CC1` gave Mtb MbtI inh -7, Mtb MenB inh 1, Polio RdRp inh 100 and Polio RdRp inh intensity 101.
`O=C(NCCc1cn2ccccc2n1)c1ccccc1F` gave Mtb MbtI inh 17, Mtb MenB inh -10, Polio RdRp inh 100 and Polio RdRp inh intensity 102.
`S=C1NCN(Cc2ccccc2)CN1Cc1ccccc1` gave Mtb MbtI inh -1, Mtb MenB inh -14, Polio RdRp inh 99 and Polio RdRp inh intensity 104.
Screening CC1CCN(CC(=O)Nc2sc3c(c2C#N)CCCC3)CC1 returned Mtb MbtI inh -1, Mtb MenB inh -3, Polio RdRp inh 103 and Polio RdRp inh intensity 101.
`OCCN1CCN(C(=S)c2ccccc2O)CC1` gave Mtb MbtI inh 38, Mtb MenB inh -19, Polio RdRp inh 98 and Polio RdRp inh intensity 102.
`CSc1nc2ccc(NC(=O)/C=C/c3ccc(C)o3)cc2s1` gave Mtb MbtI inh -12, Mtb MenB inh -41, Polio RdRp inh 106 and Polio RdRp inh intensity 98.
CCCCCSc1nnc2c(n1)OC(CC)N(C(C)=O)c1ccccc1-2 (configuration not stated) was read as Mtb MbtI inh -1, Mtb MenB inh -32, Polio RdRp inh 99 and Polio RdRp inh intensity 110.
Screening O=C(CSc1ccc2c(c1)CCC2)N(Cc1nnc(-c2ccc(Cl)cc2)o1)C1CC1 returned Mtb MbtI inh -14, Mtb MenB inh -8, Polio RdRp inh 105 and Polio RdRp inh intensity 108.
For COc1cccc(NC(=O)C(NCCO)c2ccccc2)c1 (configuration not stated) the results were Mtb MbtI inh 21, Mtb MenB inh -4, Polio RdRp inh 104 and Polio RdRp inh intensity 101.
For CC1(CC(=O)N/N=C/c2ccc(C#N)cc2)OCCO1 the results were Mtb MbtI inh 7, Mtb MenB inh 13, Polio RdRp inh 100 and Polio RdRp inh intensity 100.
For CC1CCCCN1CCNC(=O)CN1C(=O)CCSc2ccccc21 (configuration not stated) the results were Mtb MbtI inh -3, Mtb MenB inh 4, Polio RdRp inh 102 and Polio RdRp inh intensity 105.
`CC(C)(C)c1ccc(C(=O)COc2ccc(-c3nnco3)cc2)cc1` gave Mtb MbtI inh -3, Mtb MenB inh -20, Polio RdRp inh 110 and Polio RdRp inh intensity 113.
For Cc1ccn(CC(C)C(=O)O)n1 (configuration not stated) the results were Mtb MbtI inh -16, Mtb MenB inh 6, Polio RdRp inh 103 and Polio RdRp inh intensity 102.
CCCCC(=O)Nc1nc(-c2ccccc2)cs1 was read as Mtb MbtI inh 3, Mtb MenB inh -6, Polio RdRp inh 101 and Polio RdRp inh intensity 101.
For Brc1ccc2nc3c(n2c1)CCCC3 the results were Mtb MbtI inh 4, Mtb MenB inh -32, Polio RdRp inh 101 and Polio RdRp inh intensity 103.
CN(C)N1C(N)=C(C#N)C(c2ccccc2)C2=C1CCCC2=O (configuration not stated) was read as Mtb MbtI inh -2, Mtb MenB inh -22, Polio RdRp inh 100 and Polio RdRp inh intensity 106.
Cc1nn(-c2ccccc2)cc1/C=N/NC(N)=S was read as Mtb MbtI inh 6, Mtb MenB inh -2, Polio RdRp inh 102 and Polio RdRp inh intensity 100.
`CCOc1ccc(-c2nc(-c3cc(C)n(C)c3C)cs2)cc1OC` gave Mtb MbtI inh -4, Mtb MenB inh -14, Polio RdRp inh 143 and Polio RdRp inh intensity 170.
`COc1cccc(C(=O)Nc2sccc2C#N)c1` gave Mtb MbtI inh 83, Mtb MenB inh 8, Polio RdRp inh 127 and Polio RdRp inh intensity 150.
`O=C1C2C3C=CC(C3)C2C(=O)N1CN(Cc1ccccc1)CN1C(=O)C2C3C=CC(C3)C2C1=O` (configuration not stated) gave Mtb MbtI inh -12, Mtb MenB inh -6, Polio RdRp inh 105 and Polio RdRp inh intensity 101.
For Cc1c(C)n(CC(O)CNCc2ccco2)c2ccccc12 (configuration not stated) the results were Mtb MbtI inh 88, Mtb MenB inh 21, Polio RdRp inh 101 and Polio RdRp inh intensity 102.
`COc1cc(Cc2nnc(C(=O)NCc3ccccc3)o2)cc(OC)c1OC` gave Mtb MbtI inh -4, Mtb MenB inh -9, Polio RdRp inh 102 and Polio RdRp inh intensity 107.
Screening Cc1cccc(NC(=O)CC2OCCN(Cc3ccccc3)C2=O)c1 (configuration not stated) returned Mtb MbtI inh 8, Mtb MenB inh -18, Polio RdRp inh 101 and Polio RdRp inh intensity 103.
Screening CCOc1nc(NCc2ccco2)nc(N2CC3CC(C2)c2cccc(=O)n2C3)n1 (configuration not stated) returned Mtb MbtI inh 21, Mtb MenB inh 39*, Polio RdRp inh 101 and Polio RdRp inh intensity 101.
For O=c1oc2ccccc2c(Cl)c1CN1CCCC1 the results were Mtb MbtI inh 52, Mtb MenB inh -5, Polio RdRp inh 104 and Polio RdRp inh intensity 109.
For O=C(O)/C=C/c1cc(Cl)c2c(c1)OCO2 the results were Mtb MbtI inh 24, Mtb MenB inh -17, Polio RdRp inh 98 and Polio RdRp inh intensity 95.
For O=C(Nc1ccc(OCC(O)Cn2c3ccccc3c3ccccc32)cc1)c1ccccc1 (configuration not stated) the results were Mtb MbtI inh -5, Mtb MenB inh -12, Polio RdRp inh 103 and Polio RdRp inh intensity 105.
Screening CC(OC(=O)c1ccccc1Oc1ccccc1)C(=O)NC1CC1 (configuration not stated) returned Mtb MbtI inh -3, Mtb MenB inh 5, Polio RdRp inh 103 and Polio RdRp inh intensity 113.
Cc1ccc(Sc2ccc(/C=C(\C#N)C(N)=O)o2)cc1 was read as Mtb MbtI inh 6, Mtb MenB inh -184, Polio RdRp inh 101 and Polio RdRp inh intensity 104.
Screening Cc1ccc(/C=C/C(=O)O)s1 returned Mtb MbtI inh 18, Mtb MenB inh -5, Polio RdRp inh 103 and Polio RdRp inh intensity 104.
`CCn1c(=NC(=O)c2ccc(OC(C)C)cc2)sc2cc3c(cc21)OCO3` gave Mtb MbtI inh -23, Mtb MenB inh -26, Polio RdRp inh 99 and Polio RdRp inh intensity 100.
For CCn1nc(C(=O)OCc2csc(C)n2)c2ccccc2c1=O the results were Mtb MbtI inh 1, Mtb MenB inh -9, Polio RdRp inh 106 and Polio RdRp inh intensity 111.
Screening Cc1[nH]nc(N=CC2=C(O)CCCC2=O)c1-c1ccccc1 returned Mtb MbtI inh 16, Mtb MenB inh -2, Polio RdRp inh 101 and Polio RdRp inh intensity 104.
CCCCn1c(=O)c(CCC(=O)OCc2nnc(-c3cc4c(s3)CCCC4)o2)nc2ccccc21 was read as Mtb MbtI inh -5, Mtb MenB inh -28, Polio RdRp inh 106 and Polio RdRp inh intensity 110.
`CC(C)COC(=O)Oc1ccc(Br)cc1` gave Mtb MbtI inh 1, Mtb MenB inh -6, Polio RdRp inh 99 and Polio RdRp inh intensity 99.
`COc1ccc(OC)c(-n2c(=S)[nH]c3cc(C(=O)N4CCC(C(N)=O)CC4)ccc3c2=O)c1` gave Mtb MbtI inh -1, Mtb MenB inh -21, Polio RdRp inh 104 and Polio RdRp inh intensity 101.
O=c1cccc2n1CC1CC2CN(CCO)C1 (configuration not stated) was read as Mtb MenB inh 3, Polio RdRp inh 109 and Polio RdRp inh intensity 115.
For N#C/C(=C\C=C\c1ccccc1)c1cccc(Cl)c1 the results were Mtb MbtI inh -12, Mtb MenB inh -51, Polio RdRp inh 101 and Polio RdRp inh intensity 99.
`COc1cc(OC)cc(C(=O)OCc2c(C)noc2C)c1` gave Mtb MbtI inh -11, Mtb MenB inh -21, Polio RdRp inh 102 and Polio RdRp inh intensity 102.
CS(=O)(=O)c1ccc(C(=O)OCc2ccccc2F)cc1 was read as Mtb MbtI inh -2, Mtb MenB inh -31, Polio RdRp inh 102 and Polio RdRp inh intensity 93.

Among those listed so far, these have an NH in an aromatic ring.
`O=C(O)C1CCN(c2c(-c3ccccc3)c3cc(Cl)ccc3[nH]c2=O)CC1` gave Mtb MbtI inh -7, Mtb MenB inh 1, Polio RdRp inh 100 and Polio RdRp inh intensity 101.
Screening Cc1[nH]nc(N=CC2=C(O)CCCC2=O)c1-c1ccccc1 returned Mtb MbtI inh 16, Mtb MenB inh -2, Polio RdRp inh 101 and Polio RdRp inh intensity 104.
`COc1ccc(OC)c(-n2c(=S)[nH]c3cc(C(=O)N4CCC(C(N)=O)CC4)ccc3c2=O)c1` gave Mtb MbtI inh -1, Mtb MenB inh -21, Polio RdRp inh 104 and Polio RdRp inh intensity 101.

Returning to the listing with the seven entries that preceded the break.
CCCCn1c(=O)c(CCC(=O)OCc2nnc(-c3cc4c(s3)CCCC4)o2)nc2ccccc21 was read as Mtb MbtI inh -5, Mtb MenB inh -28, Polio RdRp inh 106 and Polio RdRp inh intensity 110.
`CC(C)COC(=O)Oc1ccc(Br)cc1` gave Mtb MbtI inh 1, Mtb MenB inh -6, Polio RdRp inh 99 and Polio RdRp inh intensity 99.
`COc1ccc(OC)c(-n2c(=S)[nH]c3cc(C(=O)N4CCC(C(N)=O)CC4)ccc3c2=O)c1` gave Mtb MbtI inh -1, Mtb MenB inh -21, Polio RdRp inh 104 and Polio RdRp inh intensity 101.
O=c1cccc2n1CC1CC2CN(CCO)C1 (configuration not stated) was read as Mtb MenB inh 3, Polio RdRp inh 109 and Polio RdRp inh intensity 115.
For N#C/C(=C\C=C\c1ccccc1)c1cccc(Cl)c1 the results were Mtb MbtI inh -12, Mtb MenB inh -51, Polio RdRp inh 101 and Polio RdRp inh intensity 99.
`COc1cc(OC)cc(C(=O)OCc2c(C)noc2C)c1` gave Mtb MbtI inh -11, Mtb MenB inh -21, Polio RdRp inh 102 and Polio RdRp inh intensity 102.
CS(=O)(=O)c1ccc(C(=O)OCc2ccccc2F)cc1 was read as Mtb MbtI inh -2, Mtb MenB inh -31, Polio RdRp inh 102 and Polio RdRp inh intensity 93.
Screening O=C(OCC(=O)N1N=C(c2ccc(Cl)cc2)CC1c1ccco1)c1ccccc1 (configuration not stated) returned Mtb MbtI inh 25, Mtb MenB inh -1, Polio RdRp inh 107 and Polio RdRp inh intensity 112.
For CCc1ccc(-c2nc(N)sc2CC(=O)O)cc1 the results were Mtb MenB inh -2, Polio RdRp inh 106 and Polio RdRp inh intensity 109.
For CC(O)CNc1nc2ccccc2n1Cc1ccc(C#N)cc1 (configuration not stated) the results were Mtb MbtI inh 2, Mtb MenB inh -7, Polio RdRp inh 100 and Polio RdRp inh intensity 102.
Screening O=C(CCN1C(=O)c2ccccc2C1=O)OCc1ccco1 returned Mtb MbtI inh 0, Mtb MenB inh 1, Polio RdRp inh 90* and Polio RdRp inh intensity 87*.
`CC1CCCCN1CCCNC(=O)Cn1ncc2ccc(Cl)cc21` (configuration not stated) gave Mtb MbtI inh 1, Mtb MenB inh -44, Polio RdRp inh 107 and Polio RdRp inh intensity 105.
COC(=O)c1c(NC(=O)c2ccccc2)sc2c1CCC2 was read as Mtb MenB inh -3, Polio RdRp inh 101 and Polio RdRp inh intensity 100.
Screening CC(C)Oc1ccc(C(CC(N)=O)CC(=O)O)cc1 (configuration not stated) returned Mtb MenB inh -5, Polio RdRp inh 106 and Polio RdRp inh intensity 95.
CC(C)(C)C(=O)Cn1nnc(N2CCOCC2)n1 was read as Mtb MbtI inh -15, Mtb MenB inh -6, Polio RdRp inh 109 and Polio RdRp inh intensity 116.
For COc1ccc(S(=O)(=O)N2CCNCC2)cc1OC the results were Mtb MbtI inh -5, Mtb MenB inh 5, Polio RdRp inh 104 and Polio RdRp inh intensity 105.
Screening Cc1ccc(Cl)cc1N1CCN(CC(=O)c2ccc3[nH]ccc3c2)CC1 returned Mtb MbtI inh 9, Mtb MenB inh 3, Polio RdRp inh 100 and Polio RdRp inh intensity 98.
CC(CSc1nnnn1-c1ccccc1)Cn1c(Br)nc2c1c(=O)[nH]c(=O)n2C (configuration not stated) was read as Mtb MbtI inh 15, Mtb MenB inh 16, Polio RdRp inh 102 and Polio RdRp inh intensity 103.
Screening COc1cccc(-c2nnn(Cc3nc4ccc(Cl)cc4n3CCO)n2)c1 returned Mtb MbtI inh -4, Mtb MenB inh -19, Polio RdRp inh 119 and Polio RdRp inh intensity 145.
For CCOC(=O)C1CCCN(Cc2ccc3ccccc3c2)C1 (configuration not stated) the results were Mtb MbtI inh -8, Mtb MenB inh -7, Polio RdRp inh 99 and Polio RdRp inh intensity 103.
`c1ccc(-c2nc3cc(Cc4ccc5oc(-c6ccccn6)nc5c4)ccc3o2)nc1` gave Mtb MbtI inh 0, Mtb MenB inh 33, Polio RdRp inh 101 and Polio RdRp inh intensity 100.
`COCc1c(C(=O)Nc2ccc(OC)cc2OC)oc2ccccc12` gave Mtb MbtI inh 25, Mtb MenB inh -24, Polio RdRp inh 104 and Polio RdRp inh intensity 110.
Cc1coc2cc3oc(=O)c(-c4ccccc4)cc3cc12 was read as Mtb MbtI inh 10, Mtb MenB inh -9, Polio RdRp inh 104 and Polio RdRp inh intensity 102.
For CCCNc1sc(S(C)(=O)=O)nc1S(=O)(=O)c1ccc(Cl)cc1 the results were Mtb MbtI inh 8, Mtb MenB inh 1, Polio RdRp inh 101 and Polio RdRp inh intensity 99.
Screening NC(N)=Nc1ccc(Cl)cc1 returned Mtb MbtI inh -11, Mtb MenB inh 0, Polio RdRp inh 103 and Polio RdRp inh intensity 98.
For C[N+]1(CCOc2ccccc2)Cc2ccccc2C1 the results were Mtb MbtI inh -4, Mtb MenB inh 4, Polio RdRp inh 100 and Polio RdRp inh intensity 99.
OC(COCc1cccs1)CN1CCCCCC1 (configuration not stated) was read as Mtb MbtI inh -5, Polio RdRp inh 106 and Polio RdRp inh intensity 107.
c1ccc2c(c1)NCCS2 was read as Mtb MbtI inh 12, Mtb MenB inh -18, Polio RdRp inh 101 and Polio RdRp inh intensity 103.
